# Rango dissoc inh = prevents RanGTP from dissociating the Rango-importin beta complex; O95149+P62826; Biochemical FRET Rango-importin beta, RanGTP-induced dissociation; Potency, µM (highest dose often 46.1 µM), without a hit: at the top dose activity change, negative = inhibition; 0.071% of 340,000 active; active means falling FRET ratio curve, often poorly fitted, with flat reads before Ran was added; inconclusive means other falling curves, or compound fluorescence or quenching; inactive means flat or rising ratio curve;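 also: potency is read from the fitted curve at half-maximal effect; % of control where 0% means no effect; nearly all actives have a fitted effect of over 45% in size; -100% = wells without RanGTP and RCC1; the record marks most hits as doubtful in a second field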
#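 Rango (0.1 uM)–importin beta (0.25 uM) complex; RanGTP-RCC1 trigger; 45 min RT; CFP/YFP FRET read.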
# Rango-impB inh = inhibitors of Rango-importin beta complex formation; Potency, µM (titrated, usually from 92.2 µM), inactives show at the highest dose inhibition of complex formation; Q14974; AID 540263; 0.031% of 340,000 active; Rango CFP/YFP FRET sensor + importin beta, 45 min; active = rising FRET ratio curve, often small or poorly fitted; inconclusive = mostly compound fluorescence or quenching in the first reads; inactive = flat curves in all reads;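 also: potency is read from the fitted curve at half-maximal effect; 0% = DMSO wells and 100% = buffer wells lacking importin beta; nearly all actives have a fitted effect of over 15% in size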
# Target sequence (Q14974 whole entry, looked up): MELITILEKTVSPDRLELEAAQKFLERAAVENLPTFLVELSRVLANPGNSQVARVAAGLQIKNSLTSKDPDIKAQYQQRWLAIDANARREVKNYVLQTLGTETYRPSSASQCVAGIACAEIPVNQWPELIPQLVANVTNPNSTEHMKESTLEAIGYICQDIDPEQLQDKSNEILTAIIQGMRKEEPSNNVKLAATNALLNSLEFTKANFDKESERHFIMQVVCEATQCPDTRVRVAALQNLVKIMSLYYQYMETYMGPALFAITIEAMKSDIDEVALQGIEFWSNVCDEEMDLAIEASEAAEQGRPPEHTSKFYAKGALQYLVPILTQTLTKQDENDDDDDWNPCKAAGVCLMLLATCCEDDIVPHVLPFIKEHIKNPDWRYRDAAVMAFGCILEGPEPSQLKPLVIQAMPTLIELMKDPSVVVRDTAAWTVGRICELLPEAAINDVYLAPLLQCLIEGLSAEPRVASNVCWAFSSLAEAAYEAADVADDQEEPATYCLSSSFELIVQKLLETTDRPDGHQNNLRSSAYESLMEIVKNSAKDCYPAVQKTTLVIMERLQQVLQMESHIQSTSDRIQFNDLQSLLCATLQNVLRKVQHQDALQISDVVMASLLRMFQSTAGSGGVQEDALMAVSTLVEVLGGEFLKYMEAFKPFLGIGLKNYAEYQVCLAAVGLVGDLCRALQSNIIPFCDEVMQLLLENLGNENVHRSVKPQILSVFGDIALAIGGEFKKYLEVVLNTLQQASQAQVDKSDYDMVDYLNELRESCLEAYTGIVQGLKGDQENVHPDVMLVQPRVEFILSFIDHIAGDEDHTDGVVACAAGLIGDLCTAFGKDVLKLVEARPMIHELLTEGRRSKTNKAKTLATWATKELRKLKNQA
#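 FRET biosensor Rango (snurportin 1 IBB between N-terminal EYFP and C-terminal Cerulean), 50 nM in PBS/1 mM DTT/0.02% Tween-20/0.1% BSA, preincubated 5 min RT with compound; 0.125 microM importin beta added, 45 min RT, CFP/YFP FRET ratio read.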
# GLA inh pH 4.5 = blocks human alpha-galactosidase A at pH 4.5; 230,000 tested, under 10 active; activity change, negative = inhibition, % at 105 µM; P06280; purified enzyme, 4-MU-alpha-Gal fluorescence, pH 4.5; inconclusive = small, poorly fitted or top-dose-only inhibition, or a rising curve; inactive = flat fitted curve, though single readings scatter; no compound was filed as active;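 also: 0% = full activity with enzyme and -100% = basal without enzyme; dose as in the result columns while the protocol names 77 µM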
# miR-21 FLuc = miR-21 reporter, rising signal; 340,000 tested, under 10 active; Potency, µM (highest dose often 38.3 µM), without a hit: at the highest dose reporter change, positive = more light; HeLa miR-21 FLuc reporter, luciferase, 48 h; active = well fitted rising curve with a large enough effect; inconclusive = small, poorly fitted or top-dose-only effect; inactive = no such curve, though single readings can be large or run the other way;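 also: % of control where 0% means no effect; miR-21 action dims this reporter so a rising signal means less miR-21 action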
#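 Using DMEM plus 10% FBS, HeLa miR-21-FLuc cells are incubated with test compounds (final up to about 40uM) for 48 hours; firefly luciferase signal is then imaged following reagent-mediated lysis.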
# * hit, by the source's call; ? = inconclusive; . = no result given; & = joins results of further samples. These rows are one share of the data; rates above refer to the full screens.
# The line under a structure holds: Rango-impB inh	Rango dissoc inh	miR-21 FLuc	GLA inh pH 4.5
Cc1ccc(S(=O)(=O)N2CCOCC2)cc1NC(=O)CSc1nc2ccccc2c(=O)n1Cc1ccccc1
    3.1%	0.1%	-3.3%	2.2
CC(=O)NCCc1cc2ccc(C)c(C)c2[nH]c1=O
    -0.5%	39.7%	-3.8%	-4.3
CCSC1=N/C(=C\c2ccc3c(c2)OCO3)C(=O)S1
    ?	16.4µM*	-5.2%	-4.4
O=C1N=C(N2CCCC2)S/C1=C\c1cn[nH]c1-c1ccccc1
    .	.	-2.2%	-1.9
COc1ccc(Cl)cc1C(=O)NNC(=O)c1[nH]c(C)c(C(C)=O)c1C
    2.1%	-1.5%	.	.
CCCCc1nnc(NC(=O)CCS(=O)(=O)Cc2ccccc2)s1
    -1.3%	-6.5%	-0.8%	.
O=C(Nc1ccc(Oc2ccccc2)cc1)C1CCN(c2ncccn2)CC1
    -2.1%	30.9%	-4.7%	5.5
COc1cc2cc(CCO)oc(=O)c2cc1OC
    0.6%	-5.6%	.	.
CCCC(C)C(=O)NCc1ccccc1OC (stereo not given)
    -0.2%	-4.4%	-3.1%	0.7
Nc1nc2ccccc2n1/N=C/c1ccc(-c2ccccc2)o1
    ?	?	-29.6%	-14.7
CCOC(=O)CSc1nc(C)cc(Oc2ccc(=O)n(C)n2)n1
    3.6%	19.4%	1.4%	-0.3
O=C(O)C1=C[C@@H](c2csc3ccccc23)C[C@@H](OCCCCO)O1
    -0.6%	-1.0%	-2.6%	0.4
NC(=S)N=Nc1c(O)[nH]c2c(Br)cc(Br)cc12
    1.0%	3.0%	-5.2%	-15.1
Cc1oncc1-c1cn2ccccc2n1
    -0.5%	9.3%	-11.1%	-3.2
CC1(C)Cc2nc3oc4c(N5CCOCC5)ncnc4c3cc2CO1
    -1.8%	0.7%	-3.1%	-10.7
Cc1ccc(/C=C/c2ccc3cccc(O)c3n2)s1
    ?	-7.4%	-18.5%	.
O=C(CN(C(=O)c1csnn1)c1ccc2c(c1)OCCO2)NCc1ccccc1
    0.3%	-13.2%	-15.7%	.
Cc1ccc(S(=O)(=O)NC(C)CCc2ccccc2)cc1 (stereo not given)
    -0.5%	-4.6%	-6.9%	7.5
O=C(Nc1ccccc1Oc1cccnc1)C1CCCN(Cc2ccccc2O)C1 (stereo not given)
    -1.9%	19.5%	12.1%	.
CC1(c2nnc(Cc3ccccc3)o2)CC(c2ccc(C#N)cc2)=NO1 (stereo not given)
    0.4%	-7.3%	.	.
CCN(CC)c1ccc(/C=N/NC(=O)c2nnn(-c3nonc3N)c2C(C)C)c(O)c1
    ?	?	8.2%	.
O=C(CCCOC(=O)c1ccc(O)cc1O)c1ccccc1
    -2.4%	-0.6%	.	.
COc1cccc(-c2ncc3ccccc3c2COC(=O)c2cccs2)c1
    0.5%	6.2%	.	.
Cc1ccc(NCC(O)C(O)C(O)CO)cc1C (stereo not given)
    -0.1%	-3.0%	-2.5%	-7.4
Cc1ccc(S(=O)(=O)N(C)C)cc1NC(=O)C1CCC1
    1.2%	-0.6%	-0.4%	-1.1
CCc1cccc(C)c1NC(=S)N(CCN(C)C)C(C)c1cccnc1 (stereo not given)
    1.5%	-10.6%	-4.3%	-6.3
Cc1nnc(SCCn2c(N3CCN(C)CC3)nc3c2c(=O)[nH]c(=O)n3C)s1
    4.0%	11.5%	-1.5%	8.3
N#C/C(=C\c1ccc(OCc2ccc(F)cc2)cc1)C(=O)Nc1cccc(C(=O)O)c1
    -1.7%	-4.0%	-20.6%	5.1
CC1CCC(NC(=O)CCS(=O)(=O)c2ccc3c(c2)CC(C)N3C(=O)C2CC2)CC1 (stereo not given)
    -0.5%	8.3%	-2.0%	.
CCOc1ccc(NC(=O)N(CCCN2CCOCC2)Cc2cccnc2)cc1
    -0.6%	-3.0%	2.7%	-3.0
CCCn1c(SCC(=O)Nc2ccc(C(=O)Nc3ccccc3OC)cc2)n[nH]c1=O
    0.9%	8.5%	15.1%	9.1
O=C(Cn1cnc(S(=O)(=O)N2CCCC2)c1)Nc1ccc(OC(F)(F)F)cc1
    0.4%	-0.7%	2.5%&-4.8%	.
O=C(Cn1cccc1)NCc1cccs1
    -1.6%	-3.1%	-1.8%	-13.3
CC(=O)OCCc1[nH]c2ccccc2c1C
    -2.6%	-1.8%	0.4%	.
O=C(Nc1ccnn1C1CCN(CCCc2ccccc2)CC1)c1cccc(F)c1
    0.0%	-0.7%	0.9%	.
c1ccc(-c2cc3c(N4CCOCC4)ncnc3s2)cc1
    -0.2%	-9.1%	-25.5%	3.4
CCCCN(C(=O)COC(=O)CSc1ccc([N+](=O)[O-])cc1)c1c(N)n(CCC)c(=O)[nH]c1=O
    -2.4%	6.1%	.	.
Cc1cc(C)cc(NC(=O)COC(=O)CCCC2=NS(=O)(=O)c3ccccc3N2)c1
    1.0%	1.2%	-0.3%	2.7
COc1ccc(Oc2nccc(-c3ccccc3)c2C#N)cc1
    -1.5%	-0.9%	-53.6%	-7.0
Cc1ccc(SSc2cc(C)ccc2N)c(N)c1
    -0.9%	?	.	.
O=C(Nc1ccc(N2CCN(C(=O)c3cccs3)CC2)cc1)c1cccc(F)c1
    1.8%	-12.7%	15.6%	.
Cc1cc(C)cc(N(CC(=O)NC2CCCCC2)C(=O)CNC(=O)c2ccco2)c1
    ?	-4.6%	-5.8%	.
COc1ccccc1N(CN1CCCC1=O)C(=O)c1c(F)cccc1Cl
    -0.2%	-6.4%	-1.7%	-2.1
O=C1N(Cc2cccc(Cl)c2)C[C@@H]2C[C@@H](c3cccc4ncccc34)N3CCC[C@@]123
    -2.4%	-10.0%	16.5%	4.0
CCCCS(=O)Cc1ccccc1 (stereo not given)
    -3.4%	-12.4%	-0.3%	2.9
COc1ccc(NS(=O)(=O)c2cc(NC(=O)c3cccs3)ccc2N2CCOCC2)cc1
    0.5%	1.5%	15.8%	-1.6
CCN1CCN(c2cc(C)c3cc(NC(=S)NCCCOC)ccc3n2)CC1
    2.4%	-3.9%	-1.5%	.
CCOc1cc(NC(=O)c2ccccn2)c(OCC)cc1NC(=O)c1ccc(Cl)cc1
    2.6%	2.3%	0.1%	.
Cc1ccc(-c2nn(C)c(=O)c3ccccc23)cc1CNC(=O)CN1CCOCC1
    -2.0%	?	-6.7%	-7.2
CCCN1C(=O)/C(=N\OCC(=O)NC23CC4CC(CC(C4)C2)C3)c2ccccc21
    -2.9%	12.5%	-3.7%	0.8
Cc1ccc(C)c(C(C)NC(=O)Cc2cccs2)c1 (stereo not given)
    -0.9%	27.8%	-1.3%	.
Cc1ccc2nc(-c3ccc(NC(=S)NC4CC(C)(C)NC(C)(C)C4)cc3)sc2c1
    ?	-23.5%	36.2%	-1.7
COc1ccc(NC(=O)c2ccco2)cc1NC(=O)c1cccc(F)c1
    -1.8%	-2.9%	0.2%	.
COc1ccccc1CNC(=O)C1CCC1
    0.7%	-1.9%	0.4%	4.5
CC(C)(C)N1CC(C(=O)Nc2ccc(S(=O)(=O)N3CCCCC3)cc2)CC1=O (stereo not given)
    2.0%	34.0%	.	.
Cc1ccc(NC(=O)COc2coc(CN3CCN(c4ccccc4)CC3)cc2=O)cc1
    0.9%	-0.1%	.	.
NS(=O)(=O)c1ccc(CCNc2ccccc2[N+](=O)[O-])cc1
    4.9%	-9.3%	-37.4%	.
CN(C(=O)c1ccc2c(=O)n3c(nc2c1)CCCCC3)c1ccccc1F
    2.7%	-0.9%	-11.8%	.
CCOc1ccccc1N1CCN(Cc2cccc(OC)c2O)CC1
    -0.5%	1.2%	19.9%	-5.4
C=CCNc1nnc(Cc2ccc(C(C)C)cc2)c(=O)[nH]1
    -3.3%	0.2%	7.4%	.

# The list continues:
# The line under a structure holds: Rango-impB inh	Rango dissoc inh	miR-21 FLuc	GLA inh pH 4.5
CCC(c1nnnn1Cc1ccco1)N1CCN(C(=O)c2ccco2)CC1 (stereo not given)
    -0.3%	1.4%	-1.7%	4.3
Cc1ccc(-c2cc(C(=O)Nc3c(C#N)cnn3C)no2)cc1
    4.6%	-6.8%	-27.2%	-7.4
CCc1nc2c(n1O)CCc1nonc1-2
    3.4%	0.1%	-0.6%	4.0
CCOc1cc(/C=C2/C(=N)N3C(=NC2=O)SN=C3S(=O)(=O)C(C)C)ccc1OC(=O)c1ccco1
    ?	?	3.1%	.
CCN(CC)c1ccc(NC(=O)c2ccco2)c(C)c1
    -0.1%	-11.1%	-30.2%	-5.3
CN(C)c1nc(C=C(C#N)C#N)c(Cl)n1-c1ccc(F)cc1
    ?	?	?	-4.4
O=S(=O)(CCc1nc2ccccc2o1)c1ccc(Cl)cc1
    0.3%	0.9%	-7.7%	-15.3
NC(=O)CC(NC(=O)Cc1ccc(Br)cc1)c1ccc(NCCc2ccccc2F)c([N+](=O)[O-])c1 (stereo not given)
    3.3%	-22.3%	-0.2%	5.4
CCOc1ccc(NC(=O)CN(C)C(=O)c2cc(C)on2)cc1OCC
    -1.9%	2.5%	.	.
O=C(Nc1cnc2sccn2c1=O)c1ccccc1Cl
    -2.8%	-0.8%	-17.9%	2.7
CCc1nnc(NS(=O)(=O)c2ccc(Nc3ccc([N+](=O)[O-])c4nonc34)cc2)s1
    ?	23.9%	8.9%	-0.7
CCc1c(C)nc2ncnn2c1N1CCC(C(=O)NCc2cccc(OC)c2)CC1
    5.2%	-5.4%	0.1%	0.6
COC(=O)c1cn(NC(=O)c2ccc(OC)c([N+](=O)[O-])c2)c(=O)c2ccccc12
    2.1%	-4.2%	-2.3%	-6.0
CC(C)(C)NC(=O)NC(=O)COC(=O)COc1ccc(Cl)cc1Cl
    -2.1%	-2.8%	0.4%	2.9
O=C(c1ccccc1)N1CCCCC(Sc2nnc3ccccn23)C1=O (stereo not given)
    ?	21.0%	-4.3%	-5.6
Cc1c(OC(C(=O)O)c2ccccc2)ccc2c3c(c(=O)oc12)CCC3 (stereo not given)
    -0.2%	4.7%	1.4%	.
Cc1cc(N2CCCC2)c(C)cc1C=O
    0.2%	-15.2%	-5.4%	3.9
CCn1ccc(C(=O)Nc2ccc3c(c2)CCC3)n1
    -0.9%	3.2%	-17.9%	.
O=C(COc1coc(CN2CCCc3ccccc32)cc1=O)Nc1ccc([N+](=O)[O-])cc1
    -4.5%	-11.6%	.	.
COc1ccc(NC(=O)CSc2nnc(C)n2C2CCCCC2)cc1
    6.3%	-7.7%	2.8%	.
COc1ccccc1-c1coc2c(CN3CCN(C)CC3)c(O)ccc2c1=O
    -1.2%	-0.6%	-4.1%	1.8
CCOC(=O)C(=O)N(CC)C1CCS(=O)(=O)C1 (stereo not given)
    0.1%	-12.2%	-1.8%	7.9
O=C(CN1CCN(C2CCCCC2)CC1)c1c[nH]c2ccccc12
    -5.8%	1.3%	-7.7%	-1.1
O=C(CSc1ncc(-c2ccccc2)n1C1CCCC1)N1CCc2ccccc21
    -6.2%	-2.7%	-0.1%	-8.6
Cc1[nH]c2ccccc2c1/C=N\NC(=O)CNc1ccc2c(c1)OCO2
    -1.3%	-14.6%	-16.2%	-1.5
COc1ccc(C2C(C(=O)NCc3ccccn3)c3cc(OC)c(OC)cc3C(=O)N2C)cc1 (stereo not given)
    -3.6%	1.4%	-16.6%	-8.0
Cc1cccc(NS(=O)(=O)c2ccc3c(c2)NC(=O)CC(=O)N3)c1
    4.7%	-6.8%	2.8%	-5.8
Cc1cc(O)c(C2(O)C(=O)Nc3ccccc32)cc1C (stereo not given)
    1.8%	1.0%	0.4%	.
Cc1ccsc1C(=O)OCC(=O)NCCc1ccccc1
    -3.3%	3.9%	.	.

# Entries of single compounds as entered above:
# `O=C(CCCOC(=O)c1ccc(O)cc1O)c1ccccc1` in the list: Rango-impB inh: -2.4%; Rango dissoc inh: -0.6%; miR-21 FLuc: .; GLA inh pH 4.5: .
# `O=C(Nc1ccnn1C1CCN(CCCc2ccccc2)CC1)c1cccc(F)c1` in the list: Rango-impB inh: 0.0%; Rango dissoc inh: -0.7%; miR-21 FLuc: 0.9%; GLA inh pH 4.5: .
